BJeLR viability = BJeLR cell viability loss; BJeLR (HRASV12) viability, CellTiter-Glo ATP luminescence, 48 h; reference of the scale not given here; AID 1554; 300,000 compounds, 0.17% hits; inhibition, % (test concentration not listed);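 active means replicate mean above 50%; inconclusive means above 50% but judged a plate artefact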;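 further: 50 nL library stock added to about 25 µL; numbers are from one replicate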
Autofluor counter = counter-screen for toxin protease inhibitors: compound fluorescence | compound autofluorescence counterscreen, microsphere flow cytometry; stronger effect = higher value | AID 624483 | 360,000 compounds, 3.1% hits | fluorescence intensity (concentration not given with the values);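 active means at least 3 SD above the mean of all compounds, about 16000 in these data; inconclusive means too few beads counted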;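 further: 100 nL of 1 mM stock went into each well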
PrP 5UTR inh = suppresses PrP 5' UTR mRNA reporter expression | cell-based PrP 5' UTR mRNA reporter, plate reader | inhibition, % (no concentration beside the values) | 340,000 compounds, 0.35% hits | AID 488862;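 active means every replicate at 50% or more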;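 further: 0 = median of the neutral control wells; tested in H4 reporter cells; numbers are from one replicate; inactives centre near -14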
Mtb hypoxia rep = inhibitors of hypoxia-regulated fluorescent reporter in Mycobacterium tuberculosis; AID 1159583; fluorescence inhibition, % (no concentration beside the values); M. tuberculosis hypoxia-regulated fluorescent reporter, fluorescence; 300,000 compounds, 0.1% hits;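 active means 35 to 45% if threefold the growth effect, above 45% if 1.5-fold the growth effect; inactive means the rest, general growth blockers included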;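 further: wells of about 50 µL received 100 nL stock; 0% = vehicle wells and 100% = reference inhibitor wells; whole bacteria with a GFP reporter of the hypoxia response; strong numbers were not always called active; many hits fall short of the cut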
ugtP null kill = kills S. aureus RN4220 lacking UgtP; S. aureus RN4220 ugtP deletion, OD600 growth, 16 h; some inactives read as strong as hits; 330,000 compounds, 0.54% hits; AID 1259309; growth inhibition, % (test concentration not listed);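 active means z-score under -3 and OD600 up to 0.15 on both plates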;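 further: plate controls were untreated wells for no effect and antibiotic for full effect; wells of about 80 µL received 100 nL stock; the first replicate is given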
RN4220 kill = kills Staphylococcus aureus RN4220. S. aureus RN4220 growth, OD600, 16 h. inhibition, % (no concentration beside the values). 330,000 compounds, 0.33% hits;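 active means z-score of -3 or lower and OD600 up to 0.18 on both plates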;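 further: plate controls were untreated cells for no effect and reference antibiotic for full effect; stock transfer was 100 nL into about 80 µL; one replicate is shown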
Mtb hypoxia rep growth = further read-out of Mtb hypoxia rep, marked with its call; growth inhibition, %; measured here: M. tuberculosis growth (absorbance);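 0% = vehicle and 100% = reference antibiotic; read after six days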
An asterisk follows results filed as active; ? = inconclusive; · = no result given. Rows are unselected. About 4% of those tested had a hit in this group.

SMILES	BJeLR viability	Autofluor counter	PrP 5UTR inh	Mtb hypoxia rep	Mtb hypoxia rep growth	ugtP null kill	RN4220 kill
Cc1cc(NC(=O)C2C3C(=O)N(CCC(C)C)C(C(=O)NCc4ccccc4)C34C=CC2(C)O4)no1 (stereo not drawn)	0	4469	-18	7	4	-7	-0.5
Cc1cc(C(=O)N/N=C2\CC(=O)CC(C)(C)C2)c2ccccc2n1	3	2688	-13	·	·	·	·
C=CCSc1ncc(-c2ccccc2)cn1	8	4870	-54	-8	7	8	8.4
CC1S/C(=N/N=Cc2cccc([N+](=O)[O-])c2)NC1=O (stereo not drawn)	·	·	·	3	-5	78	-2.1
CCCCNc1nnc(SCC(=O)c2c(N)n(CCC)c(=O)[nH]c2=O)s1	·	3964	-15	6	-2	2	0.5
O=C(N/N=C/c1ccc([N+](=O)[O-])o1)c1ccc(O)cc1	18	6475	-18	·	·	·	·
CSc1ccccc1NC(=O)CN(C)CC(=O)Nc1ccccc1C(F)(F)F	2	3683	-40	-4	-2	5	7.4
COc1ccc(N2Cc3ccc(OC)c(OC)c3C2=O)cc1	-6	2962	-62	3	0	3	1.0
Cc1c(Nc2cc(N3CCCC(C)C3)c3nonc3c2[N+](=O)[O-])c(=O)n(-c2ccccc2)n1C (stereo not drawn)	0	3142	4	5	5	1	-1.8
Cc1ccccc1N(C(=O)Cc1c[nH]c2ccccc12)C(C(=O)NC1CCCCC1)c1ccco1 (stereo not drawn)	9	2572	-10	9	4	10	8.5
O=S(=O)(Nc1ccccc1O)c1cccc2cccnc12	5	3999	-42	-5	4	2	3.4
COc1ccc(CC(=O)N2CCN(c3ccc(C4=NNC(=O)CC4C)cc3)CC2)cc1 (stereo not drawn)	4	4841	9	·	·	-9	-6.9
COc1ccccc1/C=[N+](\[O-])C1SC(=S)N(C)C1(C)C (stereo not drawn)	7	6034	-4	3	8	8	1.9
O=C(Cc1n[nH]c(=O)c2ccccc12)Nc1ccc(-c2nnc3n2CCCCC3)cc1	3	2524	2	11	7	6	7.8
COc1cc(/C=N/NC(=Nc2ccc(C)cc2)c2nc3ccccc3s2)ccc1O	8	10801	77*	·	·	·	·
c1ccc2c(c1)[nH]c1c(N3CCC4(CC3)OCCO4)ncnc12	-3	3275	0	12	10	-8	4.3
Cc1c(Br)c([N+](=O)[O-])nn1C(C)C(=O)N1CCCc2ccccc21 (stereo not drawn)	3	6931	-6	12	3	6	15
CCOC(=O)N1CCN(C(=O)CSCc2nc(-c3ccccc3F)oc2C)CC1	-12	?	-14	4	-5	5	4.7
Fc1ccc(N2N=C(c3cccs3)CC2c2ccccc2)cc1 (stereo not drawn)	-10	5077	3	11	11	43	-4.8
Cc1cc(C)c(OCC(O)CN2CCN(C(=O)c3ccccc3)CC2)c(C)c1 (stereo not drawn)	13	3510	-24	8	5	3	4.0
COc1ccccc1NC(=O)COC(=O)c1ccccc1C(=O)N1CCN(c2ccccc2)CC1	-15	3939	-36	0	7	8	4.7
Brc1cc2c(cc1C1OCCCO1)OCO2	·	3077	-10	25	8	5	11
Nc1ccc(-c2nc3ccc(C(=O)O)cc3s2)cc1	10	2606	54	4	-1	1	-0.4
COC(=O)c1ccc(N=Cc2c(C(F)(F)F)[nH]n(C)c2=O)cc1	0	2535	-19	14	-1	12	3.9
CCOc1c(Cl)cc(/C=C/C(=O)N(CC)CC(=O)NCc2cccs2)cc1OC	3	5320	-32	-2	0	6	2.7

As a working copy, part of the list above:
SMILES	BJeLR viability	Autofluor counter	PrP 5UTR inh	Mtb hypoxia rep	Mtb hypoxia rep growth	ugtP null kill	RN4220 kill
Cc1cc(NC(=O)C2C3C(=O)N(CCC(C)C)C(C(=O)NCc4ccccc4)C34C=CC2(C)O4)no1 (stereo not drawn)	0	4469	-18	7	4	-7	-0.5
Cc1cc(C(=O)N/N=C2\CC(=O)CC(C)(C)C2)c2ccccc2n1	3	2688	-13	·	·	·	·
C=CCSc1ncc(-c2ccccc2)cn1	8	4870	-54	-8	7	8	8.4
CC1S/C(=N/N=Cc2cccc([N+](=O)[O-])c2)NC1=O (stereo not drawn)	·	·	·	3	-5	78	-2.1

Going on with the list:
SMILES	BJeLR viability	Autofluor counter	PrP 5UTR inh	Mtb hypoxia rep	Mtb hypoxia rep growth	ugtP null kill	RN4220 kill
Cc1cccc(C)c1N1CCN(C(=O)Cn2cncn2)CC1	8	3143	-16	7	-3	6	6.2
CC(NC(=O)c1nc[nH]c1C(=O)NC(c1ccccc1)c1ccccc1)C(=O)OCc1ccccc1 (stereo not drawn)	·	·	·	6	4	0	0.0
O=C(COC(=O)c1cccnc1Cl)NCc1ccco1	4	3868	-1	8	10	3	6.0
O=C(Cn1ccc(NC(=O)OCc2ccccc2)nc1=O)NCCc1ccccn1	·	3900	-32	9	5	-3	5.0
CC1CCc2c(c3ccccc3[nH]c2=O)O1 (stereo not drawn)	-4	3224	-7	6	6	-7	5.4
CC(=NNC(=O)c1cc(C)oc1C)c1ccc(C)c([N+](=O)[O-])c1	·	·	·	9	5	1	1.1
CCn1c(COc2c(C)cccc2C)nnc1SCc1nc2ccccc2c(=O)[nH]1	-2	3791	-13	-2	-2	-2	3.4
Clc1cccc(CN2CCc3c([nH]c4ccccc34)C2)c1Cl	-3	3433	-10	·	·	·	·
COc1ccccc1NC(=O)C(C)Sc1nccn1C (stereo not drawn)	·	3002	-15	3	-2	1	1.0
CC(OC(=O)CNC(=O)c1ccc2ccccc2c1)C(=O)NC1CCCCC1C (stereo not drawn)	-5	5653	-14	·	·	·	·
NS(=O)(=O)c1ccc(CCNC(=O)CSc2ccsc2[N+](=O)[O-])cc1	-10	3342	-16	22	1	9	8.1
O=C(NC1CCCCC1)C(c1cccnc1)N(C(=O)c1csnn1)c1ccccc1F (stereo not drawn)	-2	3772	-2	-1	3	4	2.4
Cc1ccc(C(=O)c2cnc3ccccc3c2-c2ccccc2)cc1	7	10410	4	3	8	74	-6.8
O=C(Nc1cc(S(=O)(=O)N2CCOCC2)ccc1Cl)c1ccncc1	·	3381	17	11	12	9	4.4
CC(C)n1ncc2c(C(=O)Nc3ccc(CC#N)cc3)cc(C3CC3)nc21	·	3635	-3	10	8	-6	3.6
Cc1cccc2cc(CN(CC3CCCO3)C(=S)Nc3ccccc3)c(=O)[nH]c12 (stereo not drawn)	10	8958	-21	3	-1	4	2.6
COC(=O)c1cc(C#N)c(Oc2cccc(C)c2C)nc1C	2	2861	-25	·	·	-10	0.0
Cn1cccc1C(=O)OCc1nc2ccccc2c(=O)[nH]1	·	7790	-12	2	0	-2	3.2
O=C(Cc1c(Cl)cccc1Cl)Nc1cccnc1	1	2281	-21	14	-4	2	1.9
CCN(CC(=O)NCc1cccs1)C(=O)c1ccc(S(=O)(=O)N(C)C)cc1	8	4092	-2	-4	-1	-2	-1.3
COc1ccc(N2CCN(C(=O)c3cc4c(C)nc5ccccc5c4o3)CC2)cc1	5	4819	-12	-5	-3	0	-3.4
COc1cc(OC)c(OC)cc1CN1CCN(c2ccccc2OC)CC1	10	24136*	-18	10	5	11	4.5
CN(CC(=O)Nc1cccc(F)c1)C(=O)c1cn(-c2ccccc2)nc1-c1ccc(F)cc1	·	4882	-56	3	3	-12	-10
COc1ccc(S(=O)(=O)NC(CC(=O)O)c2ccco2)cc1 (stereo not drawn)	6	2174	-23	16	12	12	8.4
COc1cc(CN2CCNC(=O)C2CC(=O)N2CCCO2)cc(OC)c1 (stereo not drawn)	6	3323	-7	6	5	5	3.0

Next compounds.
SMILES	BJeLR viability	Autofluor counter	PrP 5UTR inh	Mtb hypoxia rep	Mtb hypoxia rep growth	ugtP null kill	RN4220 kill
CCCCOCCCNC(=O)CCCOc1ccccc1	0	2627	45	·	·	0	4.3
CCO[C@H]1OC(C(=O)N2CCOCC2)=C[C@@H](c2coc3ccccc3c2=O)[C@@H]1CCCO	-1	2964	-15	·	·	·	·
C=CCSc1nnc(-c2nnc(SCC=C)n2-c2ccccc2)n1-c1ccccc1	-5	6542	-21	·	·	-1	1.9
CC(C)CN(C(=O)CN1CCCCCC1)c1c(N)n(CC(C)C)c(=O)[nH]c1=O	-6	4755	-6	3	10	13	6.4
COCCN1C(=O)N(c2cccc(OC)c2)C(=O)C1CC(=O)Nc1ccc(OC)cc1 (stereo not drawn)	-6	3820	-21	9	10	15	4.3
O=C(NC1CCCCCC1)c1ccc(CS(=O)(=O)Cc2ccccc2F)o1	-6	5950	-6	-1	-2	1	2.6
Cc1ccccc1N(CC(=O)O)S(C)(=O)=O	2	2493	-14	5	4	-4	-11
Cc1cc(Cl)c2oc(C(=O)N3CCN(c4cccc(C)n4)CC3)c(C)c2c1	5	3555	-64	6	-5	-1	-2.1
Cc1sc2nc[nH]c(=O)c2c1-c1ccc(Cl)cc1	-11	3290	-11	-7	1	-14	0.7
Nc1nonc1-n1nnc(C(=O)NN=Cc2ccc(OCc3ccccc3F)cc2)c1CN1CCCCC1	·	·	·	-2	6	1	3.9
O=C(CCc1nc(-c2ccccc2F)no1)NCCN1CCN(Cc2ccccc2)CC1	-4	2554	-3	·	·	4	0.3
COc1ccc2cc(C(=O)C3CCCN(C(=O)c4cnccn4)C3)ccc2c1 (stereo not drawn)	17	3384	-17	-11	4	-3	2.6
COC(=O)c1ccc(NC(=O)CC2C(=O)N(C)C(=S)N2Cc2ccc(S(N)(=O)=O)cc2)cc1 (stereo not drawn)	19	4480	-34	·	·	·	·
Cc1nnc2ccc(-c3cccc(NC(=O)c4ccco4)c3)nn12	-2	6090	-27	9	-3	11	7.9
Cc1ccc(C(=O)NCCCNC(=O)Cc2ccccc2)cn1	-6	5603	0	12	12	5	-1.8
O=C(Cc1csc(NC(=O)Nc2cccc(Cl)c2)n1)NCc1ccccn1	9	5572	-22	3	7	11	14
CC(CO)NC(=O)C(C)C1C[C@]1(C)C(NC(=O)OCc1ccccc1)c1ccccc1 (stereo partly drawn)	·	·	·	17	6	2	3.9
COCCNC(=S)N1CCN(C(=O)C(=O)Nc2ccc(C(=O)OC)cc2)CC1	16	2555	-23	9	4	-3	0.8
Cc1[nH][nH]c(=O)c1[C@@H](c1ccccc1[N+](=O)[O-])C(C#N)C#N	5	4623	-20	1	-6	-2	5.1
COCCCNC(=S)Nc1cc2oc3ccccc3c2cc1OC	-2	·	-3	0	-4	-5	4.0
COC(=O)c1sccc1NC(=S)Nc1cc(C)ccc1OC	-8	6227	-8	-6	1	1	0.7
COc1cc2ncnc(NCc3cccs3)c2cc1OC	1	4203	-15	14	13	3	4.9
CCc1[nH]nc(C(=O)NC2CCCN(Cc3ccccc3F)C2)c1C (stereo not drawn)	1	5319	-1	7	1	2	4.1
NC(=O)COc1ccc(NC(=O)c2ccccc2-c2ccccc2)cc1	7	2692	-20	13	12	7	7.9
Cn1ncc(Br)c1C(=O)N1CCc2ccccc21	18	7501	-12	5	1	5	2.5

Remaining list, next part
SMILES	BJeLR viability	Autofluor counter	PrP 5UTR inh	Mtb hypoxia rep	Mtb hypoxia rep growth	ugtP null kill	RN4220 kill
COc1ccc(-c2cc(-c3nnc(COC(=O)C4CC4)o3)c3ccccc3n2)cc1OC	4	2134	-14	10	11	-23	-4.0
COc1cc(C(=O)Oc2cccc(Nc3ncnc4ccccc34)c2)cc(OC)c1OC	13	10979	-2	-2	0	-16	-0.1
CCN(C[C@H]1N[C@@](CC)(C(=O)OC)[C@H]2C(=O)N(C)C(=O)[C@@H]12)S(=O)(=O)c1ccc(C(F)(F)F)cc1	·	3719	-13	5	2	11	3.2
COc1ccc(CC(=O)Nc2ccc(NC(=O)c3ccccc3F)cc2)cc1	8	3205	-31	7	0	6	2.1
O=C(/C=C/Nc1ccc(S(=O)(=O)Nc2ncccn2)cc1)c1ccc2ccccc2c1	-6	3822	-24	-10	-14	0	-0.6
Cc1ccccc1NC1c2ccccc2C(=O)N1Cc1ccco1 (stereo not drawn)	-13	6810	-13	-9	13	-13	-5.4
COC(=O)C(NC(C)=O)(Nc1ccccn1)C(F)(F)F (stereo not drawn)	-6	9273	-25	12	13	0	1.9
COc1ccccc1C=NN=C(NN=Cc1ccccc1OC)NN=Cc1ccccc1OC	·	3825	-14	8	8	-3	10
O=C(/C=C/c1ccc(F)cc1)N1CCN(c2ncccn2)CC1	4	4589	-45	-6	-2	1	2.9
CCCCN(C(=O)CN1CCOCC1)c1c(N)n(CC(C)C)c(=O)[nH]c1=O	0	2038	-17	-6	-2	7	-2.4
CC(/C=C/c1ccc(OCc2ccccc2)cc1)=N\O	-15	2472	-120	·	·	·	·

Assay outcomes (PubChem)
